# HPGD block – inhibitors of human 15-hydroxyprostaglandin dehydrogenase (HPGD) | 4.3% of 150,000 active | Potency, µM, inactives show at the highest dose activity change, negative = inhibition, hits mostly inhibitors | AID 894 | purified HPGD, NADH fluorescence kinetic, PGE2 substrate; active = well fitted inhibition curve with a large enough effect (not every such curve was filed as active); inconclusive = small, poorly fitted or top-dose-only effect, or another doubt; inactive = no such curve, though single readings can be large or run the other way;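 note: top concentration of the series not given in the record; plate controls included wells without enzyme; inactives centre near -10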
# Target sequence (P15428 whole entry, looked up): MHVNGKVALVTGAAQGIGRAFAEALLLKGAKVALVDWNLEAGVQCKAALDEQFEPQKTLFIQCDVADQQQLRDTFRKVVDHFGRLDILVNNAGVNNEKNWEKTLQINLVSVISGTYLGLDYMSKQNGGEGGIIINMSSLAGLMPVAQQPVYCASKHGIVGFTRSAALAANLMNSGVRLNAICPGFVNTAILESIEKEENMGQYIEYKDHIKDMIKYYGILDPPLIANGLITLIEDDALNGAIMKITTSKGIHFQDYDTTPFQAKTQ
#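 20 nM HPGD preincubated 15 min at room temperature with compound in 50 mM Tris-HCl pH 8, 0.01% Tween 20. Started with 1 mM NAD+ and 30 uM prostaglandin E2; NADH fluorescence (360/450 nm) read 5 times over 30-s intervals, last minus first.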
# * marks the source's active call; other numbers are inactive results; ? = inconclusive. % is set by controls: 0 for no effect and ±100 for the full control effect; potency is the fitted concentration of half-maximal effect. Some of the compounds tested. The share of hits here may be higher or lower than overall.
SMILES,HPGD block
Cc1ccc(NC(=O)NC(=O)COc2ccc(Cl)cc2Cl)c(C)c1,-2%
Cc1ccc(CS(=O)(=O)Cc2ccc(C(=O)NCCCN3CCOCC3)o2)cc1,-10%
CN1CCN(C(=O)c2ccc3c(c2)NC(=O)C(C)(C)O3)CC1,8.9µM*
CC(C)=CC(=O)OCC(=O)Nc1ccccc1Cl,-22%
COc1cccc(C2CC(c3cccc(Br)c3)n3ncnc3N2)c1 (configuration not stated),-7%
O=C(O)CNS(=O)(=O)c1ccc(F)cc1,5%
CC(C)(C)NC(=O)C(c1c[nH]c2ccccc12)N(C(=O)Cn1nnc(-c2ccc(F)cc2)n1)c1cccc(O)c1 (configuration not stated),-10%
Cc1ccc(C(=O)C(OC(=O)CNS(=O)(=O)c2ccccc2)c2ccccc2)cc1 (configuration not stated),-9%
COC(=O)CNC(=O)[C@@]1(C)C=C[C@@H](Cc2ccccc2)N1C(=O)OC,-14%
O=C(CSc1nc2ccc(Cl)cc2o1)NCc1ccc2c(c1)OCO2,-13%
CCn1c(SCC(=O)Nc2ccc3c(c2)c2ccccc2n3CC)nnc1-c1ccco1,-9%
O=C(CSC1CC(=O)N(CCc2ccccc2)C1=O)Nc1ccc(Cl)cc1 (configuration not stated),-12%
COc1ccc(N2CCN(C(=O)c3cccc(N4C(=O)C5CC=CC(C)C5C4=O)c3)CC2)cc1 (configuration not stated),-3%
CCCCn1nc2cc(C(=O)NCC34CC5CC(CC(C5)C3)C4)ccc2c1OCC,-16%
COc1ccc(-c2cccc(C(=O)Nc3ccccc3C)c2)cc1,-15%
COC(=O)C1=C(NC(=O)C(C)(C)C)CCS1,-9%
CCCN1C2CCCC1CC(NC(=O)Nc1ccc(C(C)C)cc1)C2 (configuration not stated),4%
CC(C)n1c(SCC(N)=O)nc2c1c(=O)n(C)c(=O)n2C,-5%
COc1ccccc1NS(=O)(=O)c1cc(C(=O)O)ccc1F,-7%
CC(C)CN1CCC2(CC1)CCN(C(=O)c1ccncc1)CC2,-3%
N#CC1=C(N)Oc2ccc3ccc(O)cc3c2C1c1ccsc1 (configuration not stated),?
Cc1cccc(NC(=O)c2c(O)c3cccc4c3n(c2=O)CCC4)n1,-9%
COc1ccc(-n2c(SCC(=O)N3CCCCC3C)nnc2-c2cccnc2)cc1 (configuration not stated),20µM*
Cn1c(Cn2c(=O)sc3ccccc32)nnc1SCC(=O)Nc1ccc(Cl)cc1,-12%
Cc1oc2cc(O)cc(C)c2c(=O)c1-c1cnn(-c2ccccc2)c1,?
Cc1nn(C)c(C(=O)NNC(=S)NC2CCCCC2)c1Cl,-7%
O=C(O)COc1ccc(S(=O)(=O)c2ccc(OCC(=O)O)cc2)cc1,-16%
CCOc1ccc(S(=O)(=O)NCc2ccc(C)cc2)c2cccnc12,?
CC(=O)NC1C(Oc2ccc(C)cc2)OC2COC(c3ccco3)OC2C1O (configuration not stated),1%
O=C(COc1ccc(N2CC(C(=O)O)CC2=O)cc1)Nc1cccc(C(F)(F)F)c1 (configuration not stated),-5%
Cc1ccc(NC(=O)COC(=O)c2cc(Cl)ccc2Cl)c(Br)c1,-6%
CC(C)(C)C(=O)NCCN1C(=O)S/C(=C\c2ccc([N+](=O)[O-])cc2)C1=O,-6%
CCOc1cc(/C=N/Nc2nc(N3CCCC3)nc(N3CCCC3)n2)ccc1O,-21%
Cc1sc(NC(=S)NC(=O)c2cccs2)nc1-c1ccc(C(C)C)cc1,-3%
Cn1cc(CNC(=O)COc2ccc(Cl)cc2Cl)cn1,?
COc1ccc(/C=C/C(=O)Nc2sc3c(c2C(=O)NCc2cccnc2)CCCC3)cc1,?
CCOC(=O)CSc1nc2ccccc2c(=O)n1CCC(=O)NCCc1ccc(OC)c(OC)c1,-8%
CC1O[C@@H](Oc2c(-c3ccc(O)c(O)c3)oc3cc(O)cc(O)c3c2=O)C(O)C(O)C1O (some centres not stated),-6%
Cc1ccc2sc(NNC(=O)c3ccc4c(c3)OCCO4)nc2c1C,11µM*
CCC(c1nnnn1C1CCCC1)N(Cc1cccs1)Cc1cc2cc(C)ccc2[nH]c1=O (configuration not stated),-7%
Cc1cc(NC(=O)CN2C(=O)NC(C)(c3ccc(OC(F)F)cc3)C2=O)no1 (configuration not stated),-7%
Cn1nc(-c2ccc(OCC(=O)Nc3ccccc3)cc2)c2ccccc2c1=O,28µM*
O=C(NC(=S)N1CCN(Cc2ccc3c(c2)OCO3)CC1)c1ccc(Cl)cc1,-11%
O[C@@H]1C2CCCC1[C@]1(O)CCCCC1C2 (some centres not stated),5%
Cc1nnn(C23CC4CC(CC(CC(=O)Nc5ccc(C)c(C)c5)(C4)C2)C3)n1,-4%
CCOc1ccc(NC(=O)CS(=O)(=O)c2cn(CC)c3ccccc23)cc1,-1%
O=C(C1CCN(c2nnc(-n3cccc3)s2)CC1)N1CCc2ccccc2C1,14µM*
O=C(C1CC1)N1CCc2cc(S(=O)(=O)N3CCCc4ccccc43)ccc21,-6%
O=C1CCc2ccccc2O1,-3%
CCC/C=C(\CCC)C(NC(=O)c1cccs1)c1ccc(C(=O)OC)cc1 (configuration not stated),-25%
CC1CN(Cc2nc3c(c(=O)n(C)c(=O)n3C)n2Cc2ccccc2)CC(C)O1 (configuration not stated),0%
O=C(NCc1ccccn1)c1ccc(Br)s1,?
O=C1/C(=C/c2ccccc2)CCC1C1CCCC1 (configuration not stated),?
Clc1ccc(CSc2nncn2-c2ccccn2)cc1,-6%
Cc1ccccc1NC(=S)NCCc1ccccn1,-3%
Cc1cccc(C)c1OCCSc1n[nH]c(N)n1,-8%
CCCC1c2ccc(C)n2CCN1C(=O)Nc1ccc(F)cc1 (configuration not stated),-11%
COC(=O)CCN(C(=O)c1ccc(OC(C)=O)cc1)c1ccccn1,-6%
CCn1c(CC(=O)Nc2cccc(OC)c2)nnc1SCC(=O)N1CCN(c2ccccc2)CC1,1%
CCOc1ccc(S(=O)(=O)n2cc(-c3ccc(F)cc3)c(N)n2)cc1,-13%

# Further entries.
SMILES,HPGD block
O=C(OC(C(=O)NCC1CCCO1)c1ccccn1)c1cccs1 (configuration not stated),-7%
COC(=O)C1=C(C(=O)OC)[C@@H]2N(C)c3ccc(OC)cc3[C@@]23C[C@@H](C(=O)OC)N(S(=O)(=O)c2ccc(C)cc2)C3=N1,2%
CC1(C(=O)Nc2nnc(C(C)(C)C)s2)Cc2ccccc2C(=O)O1 (configuration not stated),-12%
O=C(N/N=C/c1ccc(-c2cccc([N+](=O)[O-])c2)o1)[C@H]1C[C@@H]1c1ccccc1,-14%
CC1CC(C)(C)Nc2ccc(OC(=O)c3ccco3)cc21 (configuration not stated),-26%
CN(C)c1ccc(C2(c3ccc(N(C)C)cc3)OC(=O)c3cc(N(C)C)ccc32)cc1,?
COC(=O)c1ccc(NC(=O)C23CC4CC(C2)CC(n2cnc(Cl)n2)(C4)C3)cc1,-12%
C=CCSc1nc2ccccc2c(=O)n1Cc1ccco1,-9%
N#Cc1c(-c2ccco2)nc(SCC(=O)Nc2ccc(S(N)(=O)=O)cc2)[nH]c1=O,-7%
COc1ccc(C(=O)/C=C/c2ccc(N3CCCCC3)c([N+](=O)[O-])c2)cc1,-15%
CCSc1nnc(NC(=O)C2CC2c2ccccc2)s1 (configuration not stated),-7%
C=CCOC(=O)C(C#N)c1nc2ccccc2nc1N1CCCC1 (configuration not stated),-21%
CCOC(=O)[C@H](CCc1ccccc1)N[C@@H](C)C(=O)N1[C@H](C(=O)O)C[C@H]2CCCC[C@@H]21,-4%
CCOC(=O)Cc1csc(NC(=O)CS(=O)(=O)Cc2ccccc2)n1,-1%
COc1ccccc1NC(=S)NCCSc1ccc(Cl)cc1,-10%
Cc1ccc2cccc(NC(=O)c3ccc(Br)o3)c2n1,-22%
CC(C)c1nnc(NC(=O)CSc2ncn[nH]2)s1,-14%
COC(=O)C1=C(C)N(c2ccc(Cl)c(Cl)c2)C(=O)C1,-13%
O=c1cc(-c2ccccc2)[nH]c2cc(Cl)ccc12,-8%
COc1ccccc1-c1nn2c(-c3ccc(C(C)(C)C)cc3)nnc2s1,-24%

# Some of the entries above in another layout:
> N#Cc1c(-c2ccco2)nc(SCC(=O)Nc2ccc(S(N)(=O)=O)cc2)[nH]c1=O
  HPGD block: -7%

> CCOC(=O)[C@H](CCc1ccccc1)N[C@@H](C)C(=O)N1[C@H](C(=O)O)C[C@H]2CCCC[C@@H]21
  HPGD block: -4%

> C=CCOC(=O)C(C#N)c1nc2ccccc2nc1N1CCCC1 (configuration not stated)
  HPGD block: -21%

> CC1(C(=O)Nc2nnc(C(C)(C)C)s2)Cc2ccccc2C(=O)O1 (configuration not stated)
  HPGD block: -12%

# The list goes on:
SMILES,HPGD block
CCC(=O)Nc1ccc(-c2nnc(SCC(=O)N3CCCCC3)n2C)cc1,-6%
O=C(Nc1ccc2c(c1)OCO2)c1cnn2c1NC(c1ccco1)CC2C(F)(F)F (configuration not stated),-12%
Cc1cc(C(=O)COc2cccc3cccnc23)c(C)n1C,-6%
N#Cc1ccccc1Cn1c(=O)n(CCCC(=O)NCc2ccc3c(c2)OCO3)c(=O)c2ccccc21,-28%
COc1ccc(OC)c(NC(=O)COC(=O)CN(C)S(=O)(=O)c2ccc(C)cc2)c1,-1%
CC1CCCN(CCOc2ccc(Br)cc2)C1 (configuration not stated),-4%
Cc1ccc(-c2nnn(CC(=O)N(Cc3cccs3)C(C(=O)NC3CCCCC3)c3ccco3)n2)o1 (configuration not stated),-7%
COc1ccc(N(Cc2cc3ccc(C)cc3[nH]c2=O)C(C)=O)cc1,-5%
O=C(CCC1N=C2c3ccccc3N=C(SCc3ccc(Cl)cc3)N2C1=O)NCc1ccco1 (configuration not stated),-22%
COc1cccc(/C=N/Nc2ncnc(Cl)c2N)c1O,-10%
COc1ccc(CN(C)CC(=O)NC(=O)NCc2ccccc2)cc1OC,-8%
CCn1c(SCC(=O)C(C)(C)C)nnc1-c1ccccc1OC,?
CC1SC(=NC(=O)C(C)N2C(=O)c3ccccc3C2=O)NC1=O (configuration not stated),-17%
COc1cc(S(=O)(=O)N2CCOCC2)ccc1NC(=O)COC(=O)c1ccccn1,-2%
CCOC(=O)N1CCN(c2cc(=O)n(-c3ccccc3Cl)c(=O)[nH]2)CC1,-5%
COC(=O)c1c(-c2cccc(C)c2)csc1N,-27%
CC(=O)Nc1cccc(-c2nnc(SCC(=O)n3c4c(c5ccccc53)CCCC4)n2C)c1,-12%
O=C1CC(c2ccccc2)CC(O)=C1C=NCc1ccc(Cl)c(Cl)c1 (configuration not stated),-10%
CCC1(C)Cc2nc3sc(C(=O)O)c(N)c3cc2CO1 (configuration not stated),-18%
O=S(=O)(c1ccccc1)N1CCC2(CCCN(c3ncccn3)C2)CC1,-14%

# Five neighbouring entries from above, quoted:
SMILES,HPGD block
CCC(=O)Nc1ccc(-c2nnc(SCC(=O)N3CCCCC3)n2C)cc1,-6%
O=C(Nc1ccc2c(c1)OCO2)c1cnn2c1NC(c1ccco1)CC2C(F)(F)F (configuration not stated),-12%
Cc1cc(C(=O)COc2cccc3cccnc23)c(C)n1C,-6%
N#Cc1ccccc1Cn1c(=O)n(CCCC(=O)NCc2ccc3c(c2)OCO3)c(=O)c2ccccc21,-28%
COc1ccc(OC)c(NC(=O)COC(=O)CN(C)S(=O)(=O)c2ccc(C)cc2)c1,-1%

# Remaining list, next part:
SMILES,HPGD block
CCC1=C2CC[C@H]3C(=O)N(C)C(=O)[C@H]3[C@H]2[C@@]2(C)C(=NCC(=O)OC)OC(=O)N2C1=O,-7%
O=[N+]([O-])c1cccc(/C=N\NC2=CS(=O)(=O)C=C2)c1,-9%
CCOC(=O)N1CCN(C(=O)CCSc2ccc(C)cc2)CC1,-7%
Cc1ccc(C(=O)NCc2ccccn2)o1,?
COc1cccc2c1C(=O)c1c(O)c3c(c(O)c1C2=O)C[C@@](O)(C(=O)CO)C[C@@H]3OC1C[C@@H](N)[C@H](O)[C@H](C)O1 (some centres not stated),-6%
Cn1c(SCc2ccccn2)nnc1-c1cnccn1,-2%
CCN(CC)S(=O)(=O)c1ccc(S(=O)(=O)N2CCN(C(=O)c3ccco3)CC2)cc1,-5%
CC1CCCCN1C(=O)CSc1nc(-c2ccccc2)cc(=O)[nH]1 (configuration not stated),-26%
CCC(=O)N1CCN(c2ccc(NC(=S)NC(=O)c3cccc([N+](=O)[O-])c3)cc2)CC1,-3%
Cc1ccc(-c2cn3cccnc3n2)cc1NC(=O)c1c(-c2ccccc2Cl)noc1C,?
CCCCOC(=O)C1C2C=C[C@]3(CN(CCCOC)C(=O)[C@H]13)O2 (some centres not stated),-10%
CCOC(=O)C1CCN(CC(O)COc2ccc(C(C)(C)C)cc2)CC1 (configuration not stated),-15%
Cn1c(SCC(=O)N2CCCC2)nnc1-c1ccc(S(=O)(=O)N2CCCC2)cc1,-12%
NC(=S)N/N=C/c1ccc(C(F)(F)F)cc1,-6%
Cc1ccc(NCc2ccccc2O)cc1,-23%
O=S(=O)(c1ccc(Oc2ccc(Br)cc2)cc1)N1CCOCC1,-10%
NS(=O)(=O)c1ccc(NC(=O)COC(=O)C2(c3ccc(F)cc3)CCCC2)cc1,-17%
O=c1[nH]c2ccc(N=Cc3c(O)ccc4cc(Br)ccc34)cc2[nH]1,-24%
CCOc1ccc(NC(=O)Nc2cccs2)cc1,-11%
CCOC(=O)CNC(=O)CSc1nnc(-c2ccccc2)n1Cc1ccco1,-7%
Fc1ccc(CNc2nc3ccccc3n3nnnc23)cc1,-9%

# Three entries already listed, sorted by formula weight, low to high.
SMILES,HPGD block
CCOC(=O)C1CCN(CC(O)COc2ccc(C(C)(C)C)cc2)CC1 (configuration not stated),-15%
CCn1c(SCC(=O)Nc2ccc3c(c2)c2ccccc2n3CC)nnc1-c1ccco1,-9%
O=C(CCC1N=C2c3ccccc3N=C(SCc3ccc(Cl)cc3)N2C1=O)NCc1ccco1 (configuration not stated),-22%

# High-throughput results (PubChem BioAssay)
